Mtb bLac sens: beta-lactam sensitization of Mtb H37Rv. actives 0.27% (n = 330,000). inhibition, % at 25 µM. M. tuberculosis H37Rv growth with meropenem, percent inhibition; hits of this screen are not shown here;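 active means about 74% or more and at least 40 points above the plate without the antibiotic, then above 30% in a dose series; inconclusive means first-round hits that could not be retested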;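 further: growth measured after seven days incubation then overnight dye step; 0% = bacteria only wells and 100% = bacteria with antibiotic; twin plates without the antibiotic show which effects depend on it; some results filed as inactive read as strong as hits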
Mtb H37Rv: M. tuberculosis H37Rv growth inhibitors, H37Rv strain (AID 1626); M. tuberculosis H37Rv growth inhibition; higher % means a stronger effect; one-dose inhibition, % at 10 µM; IC50 in µM for titrated hits; actives 0.95% (n = 220,000);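 active means confirmed in a dose series; inconclusive means inhibition above 80% but not taken into the dose series; inactive means below 80% or under 30% at every dose of the series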;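 further: bacteria incubated seven days before Alamar blue readout; 0% = bacteria only wells and 100% = bacteria with antibiotic wells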
YopH inh: inhibitors of Yersinia enterocolitica YopH tyrosine phosphatase; fluorescence Ex485/Em525; inhibition, %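 (about 10 µM by stock and volumes)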; actives 0.16% (n = 140,000);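 active means inhibition of 50% or more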;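 further: controls were vehicle for no effect and minimum signal wells for full effect; inactives centre near -20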
RecA intein inh: Mtb RecA intein splicing inhibition. cell-free RecA intein splicing, fluorescence. inhibition, %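 (about 9 µM by stock and volumes)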. actives 0.75% (n = 290,000). AID 2221; in the data active means inhibition above about 30%; inconclusive means no clear call, values can overlap the other calls;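 further: 0% = vehicle wells and 100% = reference inhibitor control wells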
Target sequence (P9WHJ3 whole entry, looked up): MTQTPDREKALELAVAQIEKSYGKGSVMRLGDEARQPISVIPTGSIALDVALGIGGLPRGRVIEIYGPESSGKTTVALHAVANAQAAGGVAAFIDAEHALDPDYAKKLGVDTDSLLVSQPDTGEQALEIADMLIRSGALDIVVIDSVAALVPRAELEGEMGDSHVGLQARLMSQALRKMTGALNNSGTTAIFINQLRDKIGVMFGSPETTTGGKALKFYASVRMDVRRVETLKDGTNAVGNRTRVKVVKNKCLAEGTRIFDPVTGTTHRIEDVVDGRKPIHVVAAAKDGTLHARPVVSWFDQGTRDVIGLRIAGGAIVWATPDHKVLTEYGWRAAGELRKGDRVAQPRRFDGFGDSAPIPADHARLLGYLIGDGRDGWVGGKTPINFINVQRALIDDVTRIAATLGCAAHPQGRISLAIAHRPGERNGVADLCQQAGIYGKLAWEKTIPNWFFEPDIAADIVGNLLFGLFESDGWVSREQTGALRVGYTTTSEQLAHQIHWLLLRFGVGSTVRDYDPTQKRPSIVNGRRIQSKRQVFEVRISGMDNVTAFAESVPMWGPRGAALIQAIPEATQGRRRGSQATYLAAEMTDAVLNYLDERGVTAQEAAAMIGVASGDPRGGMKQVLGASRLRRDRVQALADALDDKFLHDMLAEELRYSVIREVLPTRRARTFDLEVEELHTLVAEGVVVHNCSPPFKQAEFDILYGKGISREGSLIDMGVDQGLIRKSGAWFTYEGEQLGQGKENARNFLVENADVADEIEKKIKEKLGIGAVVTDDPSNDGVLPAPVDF
Arbovirus anti: arbovirus infection inhibition. inhibition, % at 10 µM. arbovirus infection cell-based antiviral screen. actives 0.37% (n = 200,000);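 active means inhibition from about 30%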;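 further: bluetongue infection of BSR cells; cell survival read as ATP light after 72 h; 0% = infected wells without compound and 100% = uninfected wells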
Arbovirus anti repeat: further read-out of Arbovirus anti, marked with its call; inhibition, %; measured here: 10K subset replicate screen; many hits read low in the repeat;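 first of two repeat runs on a subset; 0% = infected and 100% = uninfected wells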
Numbers without * were called inactive; ? = inconclusive; nt = no result given. Not all compounds are listed; count on the stated rates, not on these rows.

SMILES	Mtb bLac sens	Mtb H37Rv	YopH inh	RecA intein inh	Arbovirus anti	others
O=C(CSc1nnc(-c2ccccc2)n1Cc1ccccc1)N1CCCC1	3.5	-5.4%	-12.2	1.3	11.6
Cc1ccccc1C(=O)Nc1c(C(=O)N2CCN(C)CC2)cnn1-c1ccccc1	-5.6	nt	nt	0.5	nt
CC1CCN(CCC(=O)N/N=C/c2ccc([N+](=O)[O-])cc2)CC1	-1.4	5.2%	nt	-1.5	1.6
COc1ccc(CSc2nnc(C)s2)cc1F	-9.1	2.8%	nt	0.3	-1.7
CCC(=O)Nc1cccc(NC(=O)c2ccc(C)cc2Cl)c1	-1.3	18.6%	nt	3.4	4.5
O=C1c2cc(S(=O)(=O)NCCO)ccc2-c2ccc(S(=O)(=O)NCCO)cc21	-0.8	2.3%	nt	-0.4	3.0
Cc1ccc(S(=O)(=O)Cn2nnnc2C(C(C)C)N2CCN(Cc3ccco3)CC2)cc1 (configuration not stated)	5.7	1.8%	-15.9	-1.3	-2.0
CC(C)Cc1nnc(NC(=O)CCC(=O)N2CCN(c3ccccn3)CC2)s1	-0.7	-1.4%	-20.2	5.5	3.5
COc1ccccc1N1CCN(C(=O)c2ccc(S(=O)(=O)N3CCCCCC3)cc2)CC1	-4.2	-1.1%	9.2	5.2	2.4
O=C(c1cc(-c2ccncc2)nc2ccc(Br)cc12)N1CCN(c2ccccn2)CC1	8.6	2.4%	-33.3	-1.5	-2.7
Cc1csc(NC(=O)CSc2nnc(-c3ccncc3)n2C)n1	-7.8	-10.4%	-12.0	-1.9	0.9
COC(=O)COc1ccc(S(=O)(=O)Nc2ccc(C(N)=O)cc2)cc1	5.0	-11.0%	-4.1	-0.4	4.0
Cc1ccccc1NC(=O)c1cccc(N2C(=O)C3C4CCC(C4)C3C2=O)c1 (configuration not stated)	10.5	-1.7%	-9.4	-3.8	4.7
Cc1ccc(OCCNC(=O)C2CCCCC2)cc1	-1.2	9.1%	nt	-3.4	1.4
O=C1COc2ccc(S(=O)(=O)NCc3ccc(Cl)cc3)cc2N1	0.7	nt	nt	-0.5	nt
CCOc1ccccc1C1C(C#N)=C(N)Nc2onc(-c3ccccc3)c21 (configuration not stated)	-10.5	4.0%	65.2*	78.1*	-4.7
COc1ccc(S(=O)(=O)N2CCC(C(=O)NCCC(=O)Nc3cccc(OC)c3)CC2)cc1	3.5	nt	nt	-0.6	nt
O=C(Nc1cccc(-c2ccc3nncn3n2)c1)c1ccco1	-2.8	-0.5%	nt	-0.8	10.7
CCN(CC)S(=O)(=O)c1ccc(C)c(NC(=O)/C=C/c2cccs2)c1	1.3	-3.9%	-20.5	4.4	-5.9
O=c1[nH]c2cc(Cl)ccc2c(O)c1-c1cccc(Oc2ccccc2)c1	3.6	-8.3%	nt	-1.8	nt
CN(C)C(=O)CSc1nc(-c2ccccc2)c(-c2ccccc2)o1	5.0	12.2%	nt	-1.1	-15.2
Cc1ccc(OCC(=O)Nc2nnc(S(=O)(=O)N3CCCCCC3)s2)cc1	-0.6	nt	nt	-0.8	nt
O=C(O)CCNC(=O)/C(=C/c1ccco1)NC(=O)c1ccco1	-5.2	nt	nt	-4.0	nt
O=S(=O)(c1ccccc1)N(CC1CO1)c1cccc2ccccc12 (configuration not stated)	2.5	7.2%	nt	19.0	20.6
Cc1ccc(C)c(N(CC(=O)NCCc2ccccc2)C(=O)CCC(=O)Nc2ccccn2)c1	-1.6	nt	nt	-0.4	nt
O=C(NCCCN1CCc2ccccc2C1)C1CCN(c2nnc(-n3cccc3)s2)CC1	6.2	-4.8%	2.5	2.8	-4.0	Arbovirus anti repeat=-2.0
O=C1c2ccccc2S(=O)(=O)N1CC(O)COc1ccc(Cl)cc1 (configuration not stated)	-6.3	-17.2%	-22.4	3.1	-0.8
COc1ccc(CCNS(=O)(=O)c2ccc(Cl)s2)cc1OC	-5.9	nt	-16.6	0.3	5.0
CCc1nn(C(C)C(=O)Nc2cccc(C)c2C)c(=O)c2cc3occc3n12 (configuration not stated)	-4.9	7.5%	-31.1	-0.9	-9.3
COc1ccc(CCNC(=O)c2nnc(Cc3ccc(Cl)cc3)o2)cc1OC	2.4	13.9%	-18.1	-0.1	1.3
CC(Sc1ccc2c(c1)OCCO2)C(=O)Nc1ncc(Cl)cc1Cl (configuration not stated)	8.0	10.6%	-140.4	-0.2	5.5
COC(=O)C1=C(c2cc3ccccc3s2)C[C@@H]2CC[C@H]1N2C(=O)NCc1cccc2ccccc12	-4.5	13.3%	nt	13.1	nt
CC(C)(C)c1ccc(OCCCC(=O)NC2=NCCS2)cc1	98.2	11.8µM*	-19.4	0.8	10.1
c1ccc(C2CC3CC(c4ccccc4)N2O3)cc1 (configuration not stated)	14.9	3.8%	-18.9	-0.8	0.2
O=C(CN1CCN(CCN2C(=O)c3cccc4cccc(c34)C2=O)CC1)c1ccc(F)cc1	91.2	25.9%	-26.6	0.8	5.5
COc1cccc(N(CC(=O)Nc2cccc(N(C)S(C)(=O)=O)c2)S(C)(=O)=O)c1	-11.2	-0.3%	-24.6	-1.9	0.3
CN(Cc1ccn[nH]1)C(=O)C1CCC(=O)N(Cc2cccc(C(F)(F)F)c2)C1 (configuration not stated)	-6.0	nt	nt	0.7	nt
Cc1nn(C(C)C(=O)NCc2ccco2)c(C)c1[N+](=O)[O-] (configuration not stated)	-0.4	-8.3%	nt	1.5	2.5
CC1CN(CCc2ccccc2)CC(C)O1 (configuration not stated)	-3.2	-1.2%	-46.6	-0.5	6.8
COc1ccc(-c2nnc(SCC(=O)c3ccc(O)cc3O)o2)cc1	4.4	nt	nt	-1.9	nt

In the list so far, these contain fluorine.
SMILES	Mtb bLac sens	Mtb H37Rv	YopH inh	RecA intein inh	Arbovirus anti	others
COc1ccc(CSc2nnc(C)s2)cc1F	-9.1	2.8%	nt	0.3	-1.7
O=C(CN1CCN(CCN2C(=O)c3cccc4cccc(c34)C2=O)CC1)c1ccc(F)cc1	91.2	25.9%	-26.6	0.8	5.5
CN(Cc1ccn[nH]1)C(=O)C1CCC(=O)N(Cc2cccc(C(F)(F)F)c2)C1 (configuration not stated)	-6.0	nt	nt	0.7	nt

Next structures.
SMILES	Mtb bLac sens	Mtb H37Rv	YopH inh	RecA intein inh	Arbovirus anti	others
CO/N=C/c1cccn1-c1nccc(N(C)C)c1C#N	-7.5	-1.5%	nt	-8.5	2.7
COc1ccc(OC)c(NC(=O)CCN2CCCCC2)c1	-1.6	-11.3%	-31.7	0.7	4.5
COc1cccc(NC(=O)COC(=O)c2ccc(S(=O)(=O)NCc3ccco3)cc2)c1	-5.9	3.6%	-4.5	-1.1	0.4
COC(=O)c1ccccc1NC(=O)CCS(=O)(=O)c1ccc(Br)cc1	nt	-4.4%	nt	0.3	6.8
C/C(=N\NC(=O)c1ccn(C)n1)c1ccc(NC(=O)c2cccc(F)c2)cc1	-3.4	nt	nt	2.0	nt
COc1ccc(-n2c(SCC(=O)Nc3cccc(C(=O)O)c3)nnc2-c2ccco2)cc1	0.7	nt	nt	0.7	nt
CCNC(=O)COc1ncnc2scc(-c3ccc(F)cc3)c12	-4.4	10.7%	nt	-3.2	-3.9
CCOC(=O)c1cc2sccc2n1Cc1ccc(C#N)cc1	4.0	7.4%	-29.9	4.8	-15.3
Nc1cc(-c2ccc(Cl)cc2)nn1-c1ccccc1	-0.1	-7.6%	nt	0.5	-6.0
COc1ccc(CCN2C(=O)NC(NS(=O)(=O)c3ccc(NC(C)=O)cc3)(C(F)(F)F)C2=O)cc1OC (configuration not stated)	1.4	-7.7%	nt	3.5	0.6
CCOc1cc(CNc2ccccc2)cc(Br)c1OCc1ccccc1F	3.5	-9.4%	-17.2	1.5	1.1
Cc1cc(C)n(-c2nc3c(c(=O)[nH]c(=O)n3C)n2C)n1	-0.4	-6.1%	-31.9	-2.1	6.1
Cc1cc(C)c(C)c(S(=O)(=O)Nc2ccccc2C(=O)NCCCN2CCOCC2)c1C	-2.1	-1.5%	nt	-4.7	1.3
COc1ccccc1-n1cnnc1SCC(=O)Nc1ncc(Cl)cc1Cl	13.0	5.9%	-20.1	-2.0	5.5
CCOC(=O)C1C(=O)CC(C)(O)C(C(=O)OCC)C1c1cccc(OC)c1 (configuration not stated)	-6.0	0.1%	-46.6	-2.0	1.2
CC1CCN(C(=O)c2ccc(N3C(=O)c4ccccc4C3=O)cc2)CC1	-6.1	nt	nt	1.2	nt
CCC1CCCCN1C(=O)CSc1nnc(-c2ccc(Cl)cc2)o1 (configuration not stated)	?	10.8%	-45.2	-0.5	-0.1	Arbovirus anti repeat=0.7
CCOc1ncccc1C(=O)NCCc1ccc(OC)cc1	3.9	nt	nt	1.6	nt
Cc1c2c(nc3c(C(=O)NC4CCCCC4C)cnn13)CCCC2 (configuration not stated)	92.4	nt	-29.9	-3.4	-8.1
COc1ccccc1NS(=O)(=O)c1cccc(C(=O)NN)c1	-7.3	-1.9%	16.4	nt	-4.0

In the list so far, 2 contain a nitro group on carbon:
SMILES	Mtb bLac sens	Mtb H37Rv	YopH inh	RecA intein inh	Arbovirus anti	others
CC1CCN(CCC(=O)N/N=C/c2ccc([N+](=O)[O-])cc2)CC1	-1.4	5.2%	nt	-1.5	1.6
Cc1nn(C(C)C(=O)NCc2ccco2)c(C)c1[N+](=O)[O-] (configuration not stated)	-0.4	-8.3%	nt	1.5	2.5

(cont.)
SMILES	Mtb bLac sens	Mtb H37Rv	YopH inh	RecA intein inh	Arbovirus anti	others
COc1cc(NC(=O)CSc2nc3ccccc3c(=O)n2C)ccc1NC(=O)c1ccco1	73.9	8.2%	-48.7	-2.1	-11.5
CCC(C)NC(=O)c1cc(-c2ccc(OC)cc2)on1 (configuration not stated)	72.4	7.4%	-12.7	-1.1	0.6
CCOC(=O)c1sc(NC(=O)/C=C/c2c(F)cccc2Cl)nc1C	-3.0	8.2%	-9.7	0.3	-5.3
COc1ccc(-c2cc(C(=O)Nc3sc4c(c3C#N)CCCC4)c3ccccc3n2)cc1OC	54.8	15.7%	-39.1	-5.6	6.1
CCOC(=O)C1=C(NC(=S)NC(=O)c2ccccc2)c2ccccc2CC1C(C)C (configuration not stated)	-3.4	-6.0%	-44.3	4.5	5.0
COc1cccc(C(=O)NNc2c3ccccc3nc3ccccc23)c1	?	nt	nt	-3.9	nt
COC(=O)C1=C(CCc2ccccc2)NC(=O)NC1c1ccc(Br)cc1 (configuration not stated)	-6.2	nt	nt	-1.1	nt
Cn1cc(-c2nnc(-c3ccccc3)o2)c2ccccc21	23.6	4.5%	-34.9	-0.6	-9.6
O=C(CCn1c(=O)[nH]c2ccsc2c1=O)N1CCN(c2ccc([N+](=O)[O-])cc2)CC1	7.0	nt	nt	3.4	nt

An excerpt from above in order of formula weight, smallest number first.
SMILES	Mtb bLac sens	Mtb H37Rv	YopH inh	RecA intein inh	Arbovirus anti	others
CCC(C)NC(=O)c1cc(-c2ccc(OC)cc2)on1 (configuration not stated)	72.4	7.4%	-12.7	-1.1	0.6
Cn1cc(-c2nnc(-c3ccccc3)o2)c2ccccc21	23.6	4.5%	-34.9	-0.6	-9.6
CCOC(=O)c1sc(NC(=O)/C=C/c2c(F)cccc2Cl)nc1C	-3.0	8.2%	-9.7	0.3	-5.3
COC(=O)C1=C(CCc2ccccc2)NC(=O)NC1c1ccc(Br)cc1 (configuration not stated)	-6.2	nt	nt	-1.1	nt
CCOC(=O)C1=C(NC(=S)NC(=O)c2ccccc2)c2ccccc2CC1C(C)C (configuration not stated)	-3.4	-6.0%	-44.3	4.5	5.0
COc1cc(NC(=O)CSc2nc3ccccc3c(=O)n2C)ccc1NC(=O)c1ccco1	73.9	8.2%	-48.7	-2.1	-11.5

Screening data from PubChem BioAssay.
